Compound activity: PubChem BioAssay, Center for Chemical Genomics, University of Michigan
CDC25B-CDK2 inh – human CDC25B-CDK2/CyclinA binding inhibition. z-score (test concentration not listed). 94,000 compounds, 0.72% hits. P30305+P24941. HTRF CDC25B-CDK2/CyclinA binding, anti-His/anti-Flag; hits give high values. AID 1259370;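 also: score is relative to mean and SD of negative controls; strong numbers were not always called active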
TAR Tat displ – HIV-1 TAR-Tat binding disruption | HIV-1 TAR RNA, Tat peptide displacement FRET; hits give high values | z-score (test concentration not listed) | 100,000 compounds, 0.6% hits | AID 1259389;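 also: score is relative to mean and SD of negative controls; some compounds called inactive have numbers as strong as hits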
* = called active by the depositor; . = not tested or not shown.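 The calls were made as follows: active = z-score from 3 up in half or more of its runs; inactive = the rest.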

structure	CDC25B-CDK2 inh	TAR Tat displ
O=C1CC(c2nc3ccccc3n2Cc2ccc(F)cc2)CN1Cc1ccccc1 (stereo not drawn)	-1.9	-0.72
O=C(C1=Cc2sc3c(c2CS1)CCCC3)N1CCN(c2ccccn2)CC1	.	3.7
COCCNC(=O)C1CCN(c2ncnc3onc(C)c23)CC1	.	1.2
N#CCCSc1ccccc1NC(=O)/C=C/C(=O)O	-1.6	.
CCCN1CCN(CCCNC(=O)C2CCN(c3nnc(-n4cccc4)s3)CC2)CC1	0.09	1.6
Cc1cccc(OCC(O)Cn2c[n+](C)c3ccccc32)c1 (stereo not drawn)	-0.68	0.54
Cc1noc2ncnc(N3CCC(Cc4ccccc4)CC3)c12	.	1.1
CCCCSc1ncc(CO)n1Cc1ccccc1	.	0.89
Cc1cc2c(cc1S(=O)(=O)N(Cc1ccccc1)C(C)C)OCCN2C	.	1.5
Cc1nnc2c(N3CCOCC3)nc3ccccc3n12	-1.1	0.3
CSc1cccc(NS(=O)(=O)c2ccc(-c3cc(C)[nH]n3)s2)c1	.	0.64
O=[N+]([O-])c1ccccc1-n1cccc1	-0.02	.
CN(C)c1ccc(NC(=O)CSc2nc3ccccc3c(=O)n2C2CCCCC2)cc1	.	2.8
CCn1c(C)c2c(C)nnc(SCC(=O)O)c2c1C	2.8	0.17
O=C(CCS(=O)(=O)c1cc(Br)cc2c1N(C(=O)C1CC1)CC2)NCc1ccccn1	-1.9	.

One compound at a time (already shown). Screens in order: CDC25B-CDK2 inh	TAR Tat displ
Cc1cc2c(cc1S(=O)(=O)N(Cc1ccccc1)C(C)C)OCCN2C across the screens: .	1.5
Cc1cccc(OCC(O)Cn2c[n+](C)c3ccccc32)c1 (stereo not drawn) across the screens: -0.68	0.54
Cc1nnc2c(N3CCOCC3)nc3ccccc3n12 across the screens: -1.1	0.3
N#CCCSc1ccccc1NC(=O)/C=C/C(=O)O across the screens: -1.6	.
CN(C)c1ccc(NC(=O)CSc2nc3ccccc3c(=O)n2C2CCCCC2)cc1 across the screens: .	2.8

Remaining list, next part
structure	CDC25B-CDK2 inh	TAR Tat displ
CC1(C)C(=O)N(CC(O)CNc2ccccc2)C(=O)N1CN1C(=O)N(CC(O)CNc2ccccc2)C(=O)C1(C)C (stereo not drawn)	-1.8	.
COC(=O)C1C(c2cccc(Br)c2)c2c([nH][nH]c2=O)CC1(C)O (stereo not drawn)	1.2	0.25
CN(c1ccc2c(c1)OCO2)S(=O)(=O)c1ccsc1-c1nc(-c2cccs2)no1	.	0.21
O=C(CCCn1c(=O)[nH]c2ccc(Br)cc2c1=O)NCCCN1CCCCC1	-0.16	-0.01
O=c1[nH]ccc2nc(NCc3ccc(Cl)cc3)ncc12	-1.6	0.04
COc1ccc(-c2cn3nc(SCc4ccccc4)ccc3n2)cc1	.	0.14
O=C(NCCCN1CCCC1=O)C1CCN(c2nnc(N3CCCCC3=O)s2)CC1	.	0.36
c1ccc2c(c1)N=C(NNC1=Nc3ccccc3SC1)CS2	-1.6	.
CCC12CN3CC(CC)(CN(C1)C3c1cccs1)C2O (stereo not drawn)	-2	1.8
CN(CC(=O)NCc1ccc(F)cc1)S(=O)(=O)c1ccc2c(c1)CCC(=O)N2	1.3	.
Cn1c(=O)oc2cc(S(=O)(=O)N3CCC(C(=O)NC4CCCCCC4)CC3)ccc21	-0.16	.
COc1cc(-c2nc3sccn3c2Nc2c(C)cccc2C)ccc1O	-1.2	-1.4
O=C(CCc1nc(CSc2nc3ccccc3s2)no1)Nc1ccc(Cl)cc1F	.	0.8
CCCN1C(=O)C2(c3ccccc31)c1c(oc3ccc(C)cc3c1=O)C(=O)N2CCCOC(C)C (stereo not drawn)	-0.81	2.5
Clc1ccc(CSc2nnc3c(n2)OC=Nc2ccccc2-3)cc1	0.15	-4
CC(C)CNc1ncnc2onc(-c3ccc(F)cc3)c12	-1	0.82
CCCSc1nc2c(c(=O)[nH]1)C(c1ccccc1OC(C)C)CC(=O)N2 (stereo not drawn)	-1.4	2.6
COC(=O)c1cc(COc2ccc3c(oc(=O)c4cc(OC)ccc43)c2C)c(C)o1	0.32	0.6
Cc1nc2sc(C(c3ccco3)N3CCN(c4ccccc4F)CC3)c(O)n2n1 (stereo not drawn)	-0.82	.
COc1ccc(C2=NS(=O)(=O)N(C)C(C(=O)N3CCN(C)CC3)=C2)cc1OC	-2.3	2.2
C=C(C)Cn1c(C2CC(=O)N(c3ccccc3F)C2)nc2ccccc21 (stereo not drawn)	0.75	0.34
CCn1nc(C)c(CCNS(=O)(=O)c2ccc(OC)cc2)c1C	.	0.06
Cn1c(C(F)(F)F)nc2c(=O)oc3ccccc3c21	0.16	.
Cc1cc(NC(=O)C(Sc2nccc(=O)[nH]2)c2ccccc2)no1 (stereo not drawn)	-1.4	0.65
Cc1ccc(OCC2NCCS2)c([N+](=O)[O-])c1 (stereo not drawn)	-0.14	.
CC(C)CCC1=NN(C(=O)c2cccc(F)c2)C(O)(C(F)(F)F)C1 (stereo not drawn)	-0.71	.
Cc1cccc(S(=O)(=O)N2CCN(c3cc(N4CCOCC4)nc(C)n3)CC2)c1	-0.18	0.9
CC(C)(C)C1CCC2(CC1)NC(CO)(CO)CO2 (stereo not drawn)	-2	.
O=C(CN1N=NC2C(=O)N(c3ccc(F)c(Cl)c3)C(=O)C21)Nc1cccc(F)c1 (stereo not drawn)	.	0.56
Cc1cc(NS(=O)(=O)c2c(C)nc3scc(C)n3c2=O)ccc1Br	-0.07	1.2

Reformatted as labelled records: entries from further up
> Cc1cccc(S(=O)(=O)N2CCN(c3cc(N4CCOCC4)nc(C)n3)CC2)c1
  CDC25B-CDK2 inh: -0.18; TAR Tat displ: 0.9

> CC(C)(C)C1CCC2(CC1)NC(CO)(CO)CO2 (stereo not drawn)
  CDC25B-CDK2 inh: -2; TAR Tat displ: .

Next part
structure	CDC25B-CDK2 inh	TAR Tat displ
O=C(Nc1ccc(Br)cc1)C1CCN(c2ncccn2)CC1	-1.6	0.55
COc1ccc(NS(=O)(=O)c2cc3c4c(c2)CCC(=O)N4CCC3)cc1	.	1.9
CCC(=O)Nc1ccccc1SCc1cc(=O)n2ccsc2n1	.	1.1
CCOC(=O)C1=C(C)NC2=C(C(=O)CC(c3ccccc3)C2)C1c1ccc2c(c1)OCO2 (stereo not drawn)	-2.9	0.22
Cc1cccc(CSc2nc3c(c(=O)[nH]2)C(c2cc(F)ccc2F)CC(=O)N3)c1 (stereo not drawn)	-0.8	-0.91
O=C(c1noc2c1COc1ccccc1-2)N1CC=C(c2ccccc2)CC1	1.4	0.37
O=C(O)C1CSC(c2cccc(OCc3ccccc3Cl)c2)N1 (stereo not drawn)	0.38	.
CC(NC(=O)c1ccco1)c1nc(-c2ccc3c(c2)ncn3C)no1 (stereo not drawn)	.	0.4
Oc1ccccc1-c1cc2ccccc2[nH]1	-2.2	-0.22
Cc1ccc(C)c(NS(=O)(=O)c2ccc(-c3ccc(=O)[nH]n3)o2)c1	.	0.52
Cc1c(Cl)cccc1-n1nnc(-c2nc(-c3ccccc3F)no2)c1C	.	-0.7
COc1ccc(C2c3c(oc4ccccc4c3=O)C(=O)N2c2nnc(C(C)C)s2)cc1 (stereo not drawn)	0.01	-0.07
CCCc1cc(C2CCCN2S(=O)(=O)c2cnc[nH]2)no1 (stereo not drawn)	.	2.3
S=C(Nc1ccccc1Cl)N1CCOC1c1c[nH]c2ccccc12 (stereo not drawn)	-1.6	.
CCOc1cc(C2C(C(=O)OC3CCCC3)=C(C)NC3=C2C(=O)C(C(=O)OC)C(C)C3)ccc1O (stereo not drawn)	0	0.77
O=C(OCc1ccccc1Br)c1cc([N+](=O)[O-])cc([N+](=O)[O-])c1	-0.6	.
O=C(Nc1nc2c(s1)CCCC2)Nc1cc(F)ccc1F	.	0.93
Cc1cc(C)c(S(=O)(=O)NCc2cccn2Cc2ccc(Cl)cc2)c(C)c1	.	0.54
CCCNC(=O)C(CC)N1C(=O)CCn2nc(C)cc21 (stereo not drawn)	.	-0.06
Cc1ccc2nc3c(nc2c1)-c1cccc2cccc-3c12	0.57	.
CN(c1ccccc1C(=O)O)S(=O)(=O)c1ccc2[nH]c(=O)oc2c1	-1.3	0.4
CCCC(=O)Nc1ccccc1SCc1cc(=O)n2c3c(sc2n1)CCCC3	.	0.07
COc1ccc(OCC(=O)Nc2ccc(Cl)c(N3CCCS3(=O)=O)c2)cc1	.	-0.53
Cc1c(NC(=O)c2nn(-c3ccc(F)cc3)ccc2=O)c(=O)n(-c2ccccc2)n1C	-1.8	-0.74
CCOC(=O)c1nnn(-c2nonc2N)c1CN1CCc2ccccc2C1	-4.5	-0.39
Cc1nn(CC(=O)NCCN2CCOCC2)c(=O)c2cc3cc(F)ccc3n12	-4.1	1.4
CC(C)C(=O)NCC(c1cccs1)S(=O)(=O)c1ccc(F)cc1 (stereo not drawn)	.	0.64
C=C(C)CC(NC(C)c1ccccc1)c1ccco1 (stereo not drawn)	-0.1	-0.33
O=C1c2oc3ccccc3c(=O)c2C(c2ccccc2)N1Cc1ccc2c(c1)OCO2 (stereo not drawn)	0.95	0.68
Cc1ccccc1Nc1nc(-c2ccccc2F)no1	.	0.25
CCCCN(CC)C(=O)Nc1cn(C)c(=O)c2ccccc12	.	0.3
Cn1ccc2cc(S(=O)(=O)N3CCN(C(=O)Nc4ccc(Cl)cc4)CC3)ccc21	-1.9	-0.32
CCN1CCN(c2ncnc3c2cnn3-c2ccc(C)c(C)c2)CC1	.	0.46
CCc1cccc(C)c1-n1nnnc1C(C)(C)N	.	1.2
O=C(CCCc1nnc2n3nc(-c4ccccc4)nc3c3ccccc3n12)NCCCN1CCCC1=O	1.2	1.6
CN(CC(=O)NCc1cccs1)S(=O)(=O)c1cccc2nsnc12	-1.9	.
Cc1nc2nc(C)c(NS(=O)(=O)c3ccc(Cl)cc3)c(=O)n2[nH]1	-0.86	0.04
Cn1c(=O)c2c(-c3ccccc3)n(Cc3ccccc3)cc2n(C)c1=O	-2.8	0.43
COC(=O)c1cccc(NC(=O)CC2C(=O)NCCN2C(=O)Nc2ccccc2OC(F)(F)F)c1 (stereo not drawn)	0.08	.
Cn1cc2c(=O)[nH]nnc2n1	-0.21	.
CC1(C)Cc2ccccc2C2=C(C(=O)N3CCCC3)C(=O)C(=O)N21	0.03	0.16
Cc1cc(C)n(-c2nc3c(c(=O)n2CC(=O)Nc2cc(C)on2)CCC3)n1	.	2.9
O=C1OCc2cc(NS(=O)(=O)c3ccc(C4CCCCC4)cc3)ccc21	-0.57	-0.72
COc1ccc(/C=C/c2cc(O)cc(O[C@@H]3O[C@H](CO)[C@@H](O)[C@H](O)[C@H]3O)c2)cc1	.	1.8
CCOc1ccc(-c2nc(C#N)c(N3CCOCC3)o2)cc1	-0.46	1.5
Fc1cccc(-c2nn3c(-c4ccccc4)nnc3s2)c1	1.1	0.29
Cc1onc(-c2ccccc2)c1CNC(=O)c1cc(C)n(C)n1	-1.3	.
COc1ccc(Cl)cc1S(=O)(=O)N1CCN(Cc2ccc3c(c2)OCO3)CC1	-1.3	0.62
Nc1nc2c(c(=O)[nH]1)C(c1ccc(Cl)cc1)CC(=O)N2 (stereo not drawn)	-1.2	-0.19
Cc1cc(C)n2c(SC3CCCCC3NS(=O)(=O)c3ccccc3)nnc2n1 (stereo not drawn)	-0.9	-0.63
c1ccc2[nH]c(-c3ccc(-c4nc5ccccc5o4)cc3)nc2c1	-1.9	2.3
O=c1nc(-c2ccccc2)nc(-c2ccccc2)[nH]1	1.3	.
COc1ccc(OCC(O)Cn2c(N3CCCCC3)nc3c2c(=O)n(C)c(=O)n3C)cc1 (stereo not drawn)	-0.66	.
Cc1ccc(-c2nc(CSc3nncn4c3cc3occc34)c(C)o2)cc1	.	-3.3
CCSCCSC(=N)N	-0.99	.
CCN1CCN(CCNC(=O)C2=C(C)C(=O)OC23CCN(S(=O)(=O)CC)CC3)CC1	.	0.82
O=C(CSc1ccccn1)c1ccc(-c2ccccc2)cc1	-1.4	.
CC1CCC(NC(=O)C2(C)Cn3c(cc4occc43)C(=O)N2CCN2CCN(C)CC2)CC1 (stereo not drawn)	.	1.6
CC(C)c1ccc(S(=O)(=O)N2CCCC(c3nc(-c4ccccc4)no3)C2)cc1 (stereo not drawn)	.	1.9
CCOC(=O)NC(NCc1ccco1)(C(F)(F)F)C(F)(F)F	0.91	.

The listing continues.
structure	CDC25B-CDK2 inh	TAR Tat displ
Cc1nc2ncnn2c(N2CCN(c3cccc(Cl)c3)CC2)c1C	.	1.1
O=C(Nc1ccc(Cl)cc1)c1c(O)c2ccccc2[nH]c1=O	-0.93	0.19
CCC(NC(=O)Nc1cc(OC)ccc1OC)c1c(-n2cccc2)sc2c1CCN(C)C2 (stereo not drawn)	.	-1.9
CC1C(=O)C(C)C(c2ccc(O)cc2)NC1c1ccc(O)cc1 (stereo not drawn)	-1.3	-0.29
CCOC(=O)c1[nH]ncc1Sc1ccc(Cl)cc1	-1.4	.
c1ccc(-n2cc(-c3ccc4c(c3)OCCO4)[n+]3c2SCCC3)cc1	-1.6	.
CCCN(CCC)S(=O)(=O)c1cc(-c2cc(C)no2)ccc1CC	.	-0.61
COC(=O)c1ccc(-c2nc3c(c(=O)[nH]2)Cc2ccccc2O3)cc1	-2.2	1.1
